Sa ugtP lethal = growth inhibition of S. aureus ugtP deletion strain; hit rate 0.54% among 330,000; S. aureus RN4220 ugtP deletion, OD600 growth, 16 h; some inactives read as strong as hits; growth inhibition, % (concentration not given with the values); AID 1259309;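 active = z-score under -3 and OD600 up to 0.15 on both plates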;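 note: plate controls were untreated wells for no effect and antibiotic for full effect; wells of about 80 µL received 100 nL stock; the first replicate is given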
Autofluor counter = counter-screen for toxin protease inhibitors: compound fluorescence. compound autofluorescence counterscreen, microsphere flow cytometry; stronger effect = higher value. fluorescence intensity (no concentration beside the values). hit rate 3.1% among 360,000;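 active = at least 3 SD above the mean of all compounds, about 16000 in these data; inconclusive = too few beads counted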;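 note: 100 nL of 1 mM stock went into each well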
Mtb hypoxia inh = inhibitors of hypoxia-regulated fluorescent reporter in Mycobacterium tuberculosis; AID 1159583; hit rate 0.1% among 300,000; fluorescence inhibition, % (concentration not given with the values); M. tuberculosis hypoxia-regulated fluorescent reporter, fluorescence;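 active = 35 to 45% if threefold the growth effect, above 45% if 1.5-fold the growth effect; inactive = the rest, general growth blockers included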;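 note: wells of about 50 µL received 100 nL stock; 0% = vehicle wells and 100% = reference inhibitor wells; whole bacteria with a GFP reporter of the hypoxia response; strong numbers were not always called active; many hits fall short of the cut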
RN4220 kill = S. aureus RN4220 growth inhibition; OD600, 16 h; AID 1259311; hit rate 0.33% among 330,000; inhibition, % (test concentration not listed);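 active = z-score of -3 or lower and OD600 up to 0.18 on both plates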;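 note: plate controls were untreated cells for no effect and reference antibiotic for full effect; stock transfer was 100 nL into about 80 µL; one replicate is shown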
BJeLR lethal = kills HRASV12-expressing BJeLR cells; inhibition, % (no concentration beside the values); hit rate 0.17% among 300,000; BJeLR (HRASV12) viability, CellTiter-Glo ATP luminescence, 48 h; reference of the scale not given here;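 active = replicate mean above 50%; inconclusive = above 50% but judged a plate artefact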;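 note: 50 nL library stock added to about 25 µL; numbers are from one replicate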
PrP 5UTR inh = suppresses PrP 5' UTR mRNA reporter expression. cell-based PrP 5' UTR mRNA reporter, plate reader. inhibition, % (no concentration beside the values). hit rate 0.35% among 340,000;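 active = every replicate at 50% or more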;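 note: 0 = median of the neutral control wells; tested in H4 reporter cells; numbers are from one replicate; inactives centre near -14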
Mtb hypoxia inh growth = further read-out of Mtb hypoxia inh, marked with its call; growth inhibition, %; measured here: M. tuberculosis growth (absorbance);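 0% = vehicle and 100% = reference antibiotic; read after six days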
Numbers without * were called inactive; ? = inconclusive; nt = no result given. The order is random; about 4% have a hit in one of these screens.

SMILES	Sa ugtP lethal	Autofluor counter	Mtb hypoxia inh	Mtb hypoxia inh growth	RN4220 kill	BJeLR lethal	PrP 5UTR inh
CC(C)c1cc(C(F)(F)F)n2nc(C(=O)Nc3ccc4c(c3)OCO4)cc2n1	-4	4026	0	18	5.0	0	-22
COc1ccccc1CCN=C(N)NS(=O)(=O)c1ccccc1	-1	2050	-1	2	1.1	nt	-41
O=C(c1ccc2c(Cl)c3c(nc2c1)CCCC3)N1CCN(c2ccc(F)cc2)CC1	-5	4335	-1	9	-8.4	4	-7
COc1ccc(CCNc2cc(=O)[nH]c(N)n2)cc1	3	8577	-4	12	0.9	-2	17
CN(C)c1cccc2c1C(=O)c1ccccc1C2=O	-5	1921	14	6	7.8	-13	-33
Cc1nc(Cl)sc1C(=O)NC(C)c1ccc(Cl)cc1 (stereo not drawn)	1	2157	18	13	4.4	-11	-11
CSc1ccc(CN(C)CCc2ccccn2)cc1	2	3299	5	1	0.9	-3	7
C=CCNC(=O)c1ccccc1NC(=O)Nc1ccccc1	4	5313	1	8	4.8	4	-11
CCC(C)(C)n1nnnc1C(c1cccnc1)N1CCC(Cc2ccccc2)CC1 (stereo not drawn)	0	4269	-5	3	-0.8	4	0
CCOC(=O)c1ccc2c(c1)[n+](CC)c(C)n2-c1ccccc1	-5	2224	-2	-2	3.9	-1	-38
COc1ccc(Br)cc1-c1noc(-c2ccccc2)n1	-2	4392	nt	nt	-1.7	-6	-8
O=C(Cc1cccc(NC(=O)C2CCN(C(=O)C3CCCCC3)CC2)c1)Nc1cccc(C(=O)N2CCCC2)c1	4	3686	12	16	3.3	nt	-37
CN1CCN(c2ccc([N+](=O)[O-])cc2C(=O)N2CCCCC2)CC1	4	2448	-2	6	1.1	6	-1
Cc1cc(=O)oc2cc(OCC(=O)NC3CC(C)(C)NC(C)(C)C3)ccc12	-5	5718	6	13	1.1	3	-16
COC(=O)C1=C(c2cccc(OCc3ccccc3)c2)CC2CCC1N2C(=O)NCc1ccc(C(F)(F)F)cc1 (stereo not drawn)	11	nt	4	0	-13	nt	nt
Cc1ccc(O)c(N=Cc2cc(Cc3ccccc3)cc([N+](=O)[O-])c2O)c1	-7	3050	5	0	9.5	-1	-26
COc1cccc2c(=O)c3c([nH]c12)OC(C)(C)C3	-5	3249	9	15	2.6	1	-3
Cc1ccc(NS(=O)(=O)c2c(C)noc2C)cc1	7	4041	9	1	5.4	-9	-3
COc1ccc(NC(=O)CN(C)CC(=O)c2[nH]c(C)c(C(C)=O)c2C)cc1	3	4123	-2	4	2.3	nt	1
Nn1c(SCc2nc3ccccc3[nH]2)nnc1-c1ccccc1	3	?	11	9	2.6	0	1

4 entries from above, reformatted:
Cc1ccc(O)c(N=Cc2cc(Cc3ccccc3)cc([N+](=O)[O-])c2O)c1
- Sa ugtP lethal: -7
- Autofluor counter: 3050
- Mtb hypoxia inh: 5
- Mtb hypoxia inh growth: 0
- RN4220 kill: 9.5
- BJeLR lethal: -1
- PrP 5UTR inh: -26

COc1cccc2c(=O)c3c([nH]c12)OC(C)(C)C3
- Sa ugtP lethal: -5
- Autofluor counter: 3249
- Mtb hypoxia inh: 9
- Mtb hypoxia inh growth: 15
- RN4220 kill: 2.6
- BJeLR lethal: 1
- PrP 5UTR inh: -3

Cc1ccc(NS(=O)(=O)c2c(C)noc2C)cc1
- Sa ugtP lethal: 7
- Autofluor counter: 4041
- Mtb hypoxia inh: 9
- Mtb hypoxia inh growth: 1
- RN4220 kill: 5.4
- BJeLR lethal: -9
- PrP 5UTR inh: -3

COc1ccc(NC(=O)CN(C)CC(=O)c2[nH]c(C)c(C(C)=O)c2C)cc1
- Sa ugtP lethal: 3
- Autofluor counter: 4123
- Mtb hypoxia inh: -2
- Mtb hypoxia inh growth: 4
- RN4220 kill: 2.3
- BJeLR lethal: nt
- PrP 5UTR inh: 1

Following part.
SMILES	Sa ugtP lethal	Autofluor counter	Mtb hypoxia inh	Mtb hypoxia inh growth	RN4220 kill	BJeLR lethal	PrP 5UTR inh
Cc1ccc(CNC(=O)/C=C/c2cccs2)cc1	-1	2447	nt	nt	-2.8	-16	-44
Cc1ccc(-n2nc(C(=O)O)cc2-c2ccccc2Cl)cc1	-1	5290	5	1	4.9	8	-27
O=C(NCc1ccc2c(c1)OCO2)C1CCN(S(=O)(=O)N2CCCCC2)CC1	0	10814	4	4	5.3	-2	-39
COc1cc(C(C)=O)ccc1OCC(=O)Nc1ccc(C)c(S(=O)(=O)N2CCCCCC2)c1	-3	4127	-2	5	8.6	nt	-25
COC(=O)C(NC(=O)CSc1nc(N)cc(=O)[nH]1)c1ccccc1 (stereo not drawn)	1	4675	11	2	5.3	-4	-10
CCCCOC(=O)Nc1cc(Cl)ccc1C	3	2430	nt	nt	-1.0	-4	-12
O=C(COC(=O)CCC(=O)c1cccs1)Nc1ccc(S(=O)(=O)N2CCOCC2)cc1	5	4662	nt	nt	-0.3	6	-20
CCCN1CC(=O)N2Cc3[nH]c4ccccc4c3C[C@H]2C1=O	-11	3625	-11	10	-1.5	-2	-3
O=C(CCS(=O)(=O)c1cc(Br)cc2c1N(C(=O)C1CC1)CC2)N1CCN(c2ccccn2)CC1	9	?	4	5	3.6	-4	2
CCc1nnc(NS(=O)(=O)c2ccc(NC(=S)NC(=O)/C=C/c3ccc(F)cc3)cc2)s1	-4	2728	8	3	6.9	12	-16
O=C1C(Cc2ccccc2)SC(=Nc2ccccc2)N1c1ccccc1 (stereo not drawn)	-5	3730	7	8	-17	-12	-10
Cc1nc2sccn2c(=O)c1S(=O)(=O)NC(C)c1ccccc1 (stereo not drawn)	18	4600	3	2	9.7	-2	-1
Cn1c(=O)c2c(ncn2CCC(=O)NN=Cc2ccncc2)n(C)c1=O	1	nt	2	-4	1.6	nt	nt
COc1c(C(C)C)cc(NC(C)=O)cc1C(C)C	4	2364	nt	nt	6.3	-13	-12
Cn1ccs/c1=N\C(=O)Nc1ccccc1	nt	1958	nt	nt	nt	-5	-51
CCOc1ccc(CCNC(=O)CN2C(=O)c3cccnc3Oc3ccc(C)cc32)cc1OCC	7	4749	nt	nt	1.2	-8	-13
O=C1/C(=C\c2ccc(Cl)cc2Cl)N2CCC1CC2	-4	5371	5	-2	4.1	1	nt
Cc1onc(-c2c(Cl)cccc2Cl)c1C(=O)N1C(C)CCCC1C (stereo not drawn)	8	4608	2	-2	12	-8	0
Nn1cc(-c2ccccc2)nc1SCC(=O)NCCN1C(=O)CSC1=O	3	6888	1	-1	2.6	-5	-21
FC(F)(F)c1cc(CCN2CCNCC2CC2CCCCC2)cc(C(F)(F)F)c1 (stereo not drawn)	-35	nt	nt	nt	9.3	nt	nt

One compound at a time, as listed above. Order of values: Sa ugtP lethal	Autofluor counter	Mtb hypoxia inh	Mtb hypoxia inh growth	RN4220 kill	BJeLR lethal	PrP 5UTR inh
Results for Cc1nc2sccn2c(=O)c1S(=O)(=O)NC(C)c1ccccc1 (stereo not drawn) → 18	4600	3	2	9.7	-2	-1
Results for O=C1C(Cc2ccccc2)SC(=Nc2ccccc2)N1c1ccccc1 (stereo not drawn) → -5	3730	7	8	-17	-12	-10
Results for FC(F)(F)c1cc(CCN2CCNCC2CC2CCCCC2)cc(C(F)(F)F)c1 (stereo not drawn) → -35	nt	nt	nt	9.3	nt	nt
Results for Cn1c(=O)c2c(ncn2CCC(=O)NN=Cc2ccncc2)n(C)c1=O → 1	nt	2	-4	1.6	nt	nt

(listing goes on)
SMILES	Sa ugtP lethal	Autofluor counter	Mtb hypoxia inh	Mtb hypoxia inh growth	RN4220 kill	BJeLR lethal	PrP 5UTR inh
COc1ccc(Cl)cc1NC(=O)C/C(C)=N/NC(=O)CCc1ccccc1	nt	2894	nt	nt	nt	6	-6
CC1(C)CC(=O)C=C(Nc2cccc(O)c2)C1	-3	2764	15	12	7.0	-2	-18
CC(C)COC(=O)CCn1[nH]c(=O)c2ccccc2c1=O	-3	22405*	4	12	7.4	9	-12
O=C(CCc1ccccc1)NNC(=O)c1cc(Cl)ccc1O	19	3410	-1	-7	-1.7	0	-14
COc1ccc(C(=O)NNC(=O)C2=NN(c3ccccc3)C(=O)CC2)cc1	3	6004	4	1	4.2	-3	-7
C[C@@H]1O[C@@H](O[C@H]2[C@H](Oc3cc(O)c4c(c3)O[C@H](c3ccc(O)cc3)CC4=O)O[C@H](CO)[C@@H](O)[C@@H]2O)[C@H](O)[C@H](O)[C@H]1O	nt	4419	nt	nt	nt	-2	-12
CN(C)Cc1ccccc1Cc1ccccc1	5	7049	-2	-8	-1.7	-14	-19
CNc1nc(NC)c2cn[nH]c2n1	-2	3902	4	5	4.0	nt	-9
Cc1ccc(-c2[nH]ncc2C(=O)c2ccc(Br)cc2)c(O)c1	-9	3120	11	3	2.6	-9	-28
Cc1cccc(CNC(=O)CCn2ccc3cc(S(=O)(=O)N4CCCC4)ccc32)c1	-2	5578	-5	1	1.4	7	-23
O=C(Nc1ccc(F)cc1)c1cccnc1	3	3033	2	3	2.6	-5	-14
COc1ccc(C2OCC3OC(O)C(NC(C)=O)C(O)C3O2)cc1 (stereo not drawn)	-5	nt	5	12	-8.0	nt	nt
N=C1c2ccccc2CN1NC(=O)c1ccc(Br)o1	0	5203	6	4	0.2	3	-9
Cc1cc(NN=Cc2ccc(O)cc2O)nc(-c2ccccc2O)n1	-20	nt	3	-4	-1.8	nt	nt
CCCOc1ccc(C2C(C(=O)c3ccc(C)o3)=C(O)C(=O)N2Cc2ccco2)cc1 (stereo not drawn)	3	5262	8	5	6.1	-10	-9
COc1cccc(Nc2c(F)c(OC)c(F)c(F)c2C(=O)O)c1	-6	4759	nt	nt	4.6	-3	-23
NC(=O)CC[C@H](NC(=O)c1ccc(F)cc1)C(=O)OCC(=O)NCc1ccc2c(c1)OCO2	4	3381	6	15	1.7	nt	-10
CCOC(=O)c1cnc(-n2[nH]c(C)c(Cc3ccccc3)c2=O)[nH]c1=O	4	2201	18	16	27	9	-5
CC(=O)c1c(C)[nH]c(C(=O)OCC(=O)c2ccc(C)s2)c1C	-19	nt	5	0	0.2	nt	-32
Cc1c(C(=O)N2CCCC2)c(S(=O)(=O)Nc2cccc(Br)c2)c(C)n1C	0	5559	13	3	-1.2	9	-1
CCOC(=O)C(C)Oc1ccc(NC(=O)C(Cl)Cl)cc1 (stereo not drawn)	9	5915	12	6	2.3	-2	-10
COc1ccc(OC)c(/C=C/C(=O)NC2=NCCS2)c1	2	3536	15	-2	-4.9	6	-64
O=C(O)CCc1nnc(SCC(=O)Nc2ccc(Cl)c(C(F)(F)F)c2)[nH]c1=O	-6	2934	-4	12	0.4	-1	-21
CCCCC1CCC(C(=O)N(CCOC)c2c(N)n(CCCC)c(=O)[nH]c2=O)CC1 (stereo not drawn)	-2	5658	8	3	3.7	-9	-16
N#Cc1c(Cl)nc(N/N=C/c2ccccc2)c(Cl)c1Cl	nt	2548	nt	nt	nt	-2	-7
COc1cc(C2NC(=O)NC(C)=C2C(=O)OCc2ccc(C)cc2)cc(OC)c1O (stereo not drawn)	-2	10003	-5	2	2.5	-12	6
CCCC(=O)Nc1ccc2c(c1)nc1n2CCN(C2CCCCC2)C1	6	4113	-11	0	0.7	nt	-11
CC(C)OC(=O)CC1C(=O)NCCN1C(=O)COc1ccc(C(C)(C)C)cc1 (stereo not drawn)	6	5608	0	-6	9.7	-1	-2
CC(C)NC(=O)C1CCN(Cc2cnn(-c3ccccc3)c2-n2cccc2)CC1	-4	3507	3	9	-11	1	0
CN(c1cccc(NS(=O)(=O)c2cccs2)c1)S(C)(=O)=O	11	6674	3	2	6.5	-11	-6
COc1ccc(NC(=O)COC(=O)/C=C/c2ccccc2[N+](=O)[O-])cc1OC	0	2044	-2	7	-1.8	6	-10
COC(=O)c1cc(=O)nc2sc(-c3ccc(F)cc3)nn12	6	8601	-6	3	1.5	4	-22
NC(=O)CSc1ncnc2c1cnn2Cc1ccccc1	38	5517	3	11	0.1	-8	-15
O=C(Oc1ccc(C(=S)N2CCOCC2)cc1)c1ccccc1[N+](=O)[O-]	9	3884	1	12	-1.5	-2	-10
Cn1c(=O)[nH]c(=O)c2c1nc(SCC(=O)O)n2CCCc1ccccc1	1	2932	-1	-1	4.4	-19	-11
CSCCC(NC(=O)NCc1ccccc1F)C(=O)O (stereo not drawn)	3	nt	9	3	4.2	nt	nt
CCC(C)NC(=O)CCn1c(-c2ccc(F)cc2)cc(C(C)=O)c1C (stereo not drawn)	-3	2651	-3	-2	2.4	-5	-15
O=C(Nc1cccc(S(=O)(=O)N2CCOCC2)c1)c1ccc(N2CCOCC2)c([N+](=O)[O-])c1	1	2093	nt	nt	2.8	-17	25
